# FGF22 binding: FGF22 (human) thermal shift binding; recombinant FGF22 thermal shift, SYPRO orange fluorescence; percent of sucrose octasulfate shift, DMSO zero; calls only at 9.99 µM; 340,000 compounds, 1.5% hits; AID 651658;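 active = melting point raised past a set limit in the mean and every replicate; three in four hits are not shown here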
# Target sequence (Q9HCT0 whole entry, looked up): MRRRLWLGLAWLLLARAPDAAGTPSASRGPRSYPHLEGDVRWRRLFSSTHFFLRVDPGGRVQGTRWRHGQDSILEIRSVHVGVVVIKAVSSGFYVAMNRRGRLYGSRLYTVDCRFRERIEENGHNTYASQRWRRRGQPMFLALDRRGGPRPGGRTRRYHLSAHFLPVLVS
# MLL AF4-AF9 inh: MLL-AF4/AF9 protein interaction inhibition | AlphaScreen, biotin-AF4 peptide binding to FLAG-AF9 | P42568 | inhibition, % at 10 µM | 350,000 compounds, 0.47% hits;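 active = every replicate reaching a set inhibition limit, whatever the replicate mean, cut at about 25% in these data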;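 also: 0% = plate neutral control median and 100% = total signal loss; the record names both 10 and 1 µM as test concentration; the first replicate is given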
# Target sequence (P42568 whole entry, looked up): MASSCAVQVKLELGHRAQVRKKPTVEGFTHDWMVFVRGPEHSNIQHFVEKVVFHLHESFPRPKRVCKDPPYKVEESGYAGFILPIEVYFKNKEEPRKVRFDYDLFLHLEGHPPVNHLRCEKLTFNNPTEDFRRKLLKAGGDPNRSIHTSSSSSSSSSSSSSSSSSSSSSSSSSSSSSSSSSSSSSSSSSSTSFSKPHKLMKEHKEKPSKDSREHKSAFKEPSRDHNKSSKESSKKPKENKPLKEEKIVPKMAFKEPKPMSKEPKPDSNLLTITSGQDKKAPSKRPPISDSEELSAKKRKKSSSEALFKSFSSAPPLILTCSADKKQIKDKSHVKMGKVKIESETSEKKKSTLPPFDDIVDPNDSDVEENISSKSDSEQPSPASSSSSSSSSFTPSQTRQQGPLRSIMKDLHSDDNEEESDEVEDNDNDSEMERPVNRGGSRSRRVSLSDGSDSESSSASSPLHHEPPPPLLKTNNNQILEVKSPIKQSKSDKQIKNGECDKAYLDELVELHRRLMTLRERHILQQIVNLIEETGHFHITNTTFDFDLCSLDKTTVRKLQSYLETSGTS
# rRNA inh HTS: selective bacterial rRNA inhibition in E. coli; E. coli WT GFP vs humanized-ribosome RFP mutants, fluorescence, 24 h; hits give low values; DMSO median 0, no signal -100; GFP signal change (wild-type ribosome), % (no concentration beside the values); 350,000 compounds, 1.6% hits; AID 720706;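 active = significant combined selectivity score with lowered wild-type GFP, culture density cut under 30%, mutant RFP and density less affected; inactive = any of these conditions unmet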; also: one replicate is shown; some compounds called inactive have numbers as strong as hits
# rRNA inh HTS OD600: also measured in rRNA inh HTS; calls as there; OD600 change, %; measured here: OD600 growth;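 optical density of the mix in the first replicate; 0 = DMSO median and -100 = no signal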
# rRNA inh HTS RFP: also measured in rRNA inh HTS; calls as there; RFP signal change, %; measured here: RFP humanized mutant strains;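 first replicate; 0 = DMSO median and -100 = no signal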
# * = called active by the depositor; i = inactive; & = joins results of further samples.
FGF22 binding	MLL AF4-AF9 inh	canonical_smiles	rRNA inh HTS	rRNA inh HTS OD600	rRNA inh HTS RFP
i	-0.3	O=C(CC1CC1)Nc1ccc2c(c1)[C@@H]1C[C@@H](CC(=O)N3CCc4ccccc4C3)O[C@H](CO)[C@@H]1O2	2	5	-2.0
i	-2.1	CN(C)CC(=O)N1CCCCN2[C@@H](CO)[C@H](c3ccc(/C=C/c4ccccc4)cc3)[C@@H]2C1	0	12	0.9
i	0.0	CN1c2ccc(-c3ccccc3)cc2[C@@H]2[C@@H](CCN2C(=O)c2ccc3c(c2)OCO3)[C@@H]1CO	-3	-34	29
i	-2.1	C[C@H]1CN([C@@H](C)CO)C(=O)c2cccc(NS(=O)(=O)c3cccs3)c2O[C@H]1CN(C)C	3	2	-1.5
i	-0.6	C[C@@H]1CCCCO[C@@H](CN(C)C(=O)CCC(F)(F)F)[C@@H](C)CN([C@H](C)CO)C(=O)c2cc(NC(=O)Cc3ccccc3)ccc2O1	2	1	1.3
i	-2.4	CCN(C[C@H]1[C@@H](c2ccccc2)[C@H](CO)N1C(C)=O)C(=O)c1ccccn1	5	14	-1.6
i	0.1	COc1ccccc1-c1cn(CC[C@@H]2CC[C@H](NC(=O)Cc3ccccn3)[C@@H](CO)O2)nn1	1	4	1.1
i	3.1	C[C@@H]1CN([C@H](C)CO)C(=O)c2cccc(NC(=O)Nc3ccc4c(c3)OCO4)c2O[C@H]1CN(C)Cc1ccc(C(F)(F)F)cc1	-2	0	7.8
i	-1.0	C[C@H]1CN([C@@H](C)CO)C(=O)c2cccc(NS(=O)(=O)c3ccc(Cl)cc3)c2O[C@@H]1CN(C)Cc1ccc(C(=O)O)cc1	4	8	-2.2
i	-1.6	C[C@H](NC(=O)C[C@H]1CC[C@H]2[C@@H](COc3ccc(NS(=O)(=O)c4ccc(Cl)cc4)cc3C(=O)N2C)O1)c1ccccc1	-4	-29	0.4

# Compound profiles, from the list above. Screens in order: FGF22 binding	MLL AF4-AF9 inh	rRNA inh HTS	rRNA inh HTS OD600	rRNA inh HTS RFP
# Entry for COc1ccccc1-c1cn(CC[C@@H]2CC[C@H](NC(=O)Cc3ccccn3)[C@@H](CO)O2)nn1 = i	0.1	1	4	1.1
# Entry for CN1c2ccc(-c3ccccc3)cc2[C@@H]2[C@@H](CCN2C(=O)c2ccc3c(c2)OCO3)[C@@H]1CO = i	0.0	-3	-34	29
# Entry for C[C@H]1CN([C@@H](C)CO)C(=O)c2cccc(NS(=O)(=O)c3cccs3)c2O[C@H]1CN(C)C = i	-2.1	3	2	-1.5
# Entry for C[C@@H]1CCCCO[C@@H](CN(C)C(=O)CCC(F)(F)F)[C@@H](C)CN([C@H](C)CO)C(=O)c2cc(NC(=O)Cc3ccccc3)ccc2O1 = i	-0.6	2	1	1.3

# Remaining list, next part:
FGF22 binding	MLL AF4-AF9 inh	canonical_smiles	rRNA inh HTS	rRNA inh HTS OD600	rRNA inh HTS RFP
i	-0.4	CC(C)(C)OC(=O)N1CCC(C(=O)Nc2ccc(C(=O)NCCc3ccccc3)cc2)CC1	10	5	0.4
i	0.8	Cc1ccc(S(=O)(=O)N(C)C[C@@H]2OCCCC[C@@H](C)Oc3ccc(NS(=O)(=O)c4ccc(F)cc4)cc3C(=O)N([C@@H](C)CO)C[C@@H]2C)cc1	0	6	-0.5
i	-3.6	Cc1noc(C)c1S(=O)(=O)Nc1cccc2c1O[C@@H](CN(C)C(=O)NC(C)C)[C@@H](C)CN([C@@H](C)CO)C2=O	2	-1	-0.3
i	-0.3	C[C@@H]1CN([C@H](C)CO)C(=O)c2cc(C#Cc3ccccc3)cnc2O[C@@H]1CN(C)Cc1ccccn1	2	5	0.9
i	11	COc1cc2c(cc1OC)C(CNC(=O)C=Cc1ccccc1)C2 (stereo not given)	-18	-13	-3.5
i	0.3	O=C(C[C@@H]1C[C@H]2c3cc(NC(=O)C4CCOCC4)ccc3O[C@H]2[C@@H](CO)O1)NCCc1ccccc1	1	3	-2.5
i	-1.3	ClCCn1cnc2c(SCc3ccccc3Cl)ncnc21	-64	-76	-15
i	0.3	N#C[C@@H]1[C@@H](c2ccccc2)[C@@H](CO)N1S(=O)(=O)Cc1ccccc1	2	-7	2.4
i	-11	CCCCCCCCN1C(=O)[C@@H](CC(=O)NCCCOCCCC)C[C@@]2(C(=O)OC)C1=C[C@H](C(C)(C)C)O[C@@H]2C	6	2	-2.8
i	-0.2	Cc1ccccc1-c1cnc2c(c1)C(=O)N([C@@H](C)CO)C[C@H](C)[C@H](CN(C)CC1CCCCC1)O2	0	8	2.1

# Pulled one by one from above (2):
FGF22 binding	MLL AF4-AF9 inh	canonical_smiles	rRNA inh HTS	rRNA inh HTS OD600	rRNA inh HTS RFP
i	0.1	COc1ccccc1-c1cn(CC[C@@H]2CC[C@H](NC(=O)Cc3ccccn3)[C@@H](CO)O2)nn1	1	4	1.1
i	0.8	Cc1ccc(S(=O)(=O)N(C)C[C@@H]2OCCCC[C@@H](C)Oc3ccc(NS(=O)(=O)c4ccc(F)cc4)cc3C(=O)N([C@@H](C)CO)C[C@@H]2C)cc1	0	6	-0.5

# Continuation:
FGF22 binding	MLL AF4-AF9 inh	canonical_smiles	rRNA inh HTS	rRNA inh HTS OD600	rRNA inh HTS RFP
i	0.1	C[C@H](CO)N1C[C@H](C)[C@@H](CN(C)Cc2ccccn2)Oc2ncc(C#CCN(C)C)cc2C1=O	10	19	-3.5
i	1.6	CC=Cc1ccc2n(c1=O)C[C@H]1[C@H](CO)[C@@H](C(=O)NCC3CC3)N(CC3CCOCC3)[C@@H]21 (mixture of isomers)	1	9	-2.0
i	1.6	O=C(c1ccc(=O)[nH]c1)N(c1ccccc1)C(CCc1ccccc1)c1nc2ccccc2[nH]1 (stereo not given)	-9	-15	3.9
i	-0.6	CC(=O)c1cccc(NC(=O)C2Cc3c(-c4ccco4)ccnc3O2)c1 (stereo not given)	-1	-5	-0.8
i	-2.7	CCN(CC)C(=O)C1=C(C)N(Cc2ccc(OC)cc2)C(=O)C(CC(=O)NCc2cccs2)C1 (stereo not given)	-5	8	1.6
i	-2.8	N#C[C@@H]1[C@@H](c2ccccc2)[C@H](CO)N1C(=O)Cc1ccccc1	1	19	-4.7
i	5.8	CCNC[C@H]1[C@H](c2ccc(C3=CCCCC3)cc2)[C@@H](CO)N1C(=O)NC(C)C	0	-29	33
i	-2.3	C[C@H](O)C#Cc1cnc2c(c1)C(=O)N([C@H](C)CO)C[C@@H](C)[C@H](CN(C)C(=O)CN(C)C)O2	4	-2	0.1
i	-1.6	CC(=N)c1c(O)cc(C)oc1=O	9	14	2.9
i	-4.1	CCCN(CC(=O)Nc1ccccc1OC)C(=O)Cn1c(=O)oc2ccccc21	0	-2	-0.5
i	-4.0	CC1(C(=O)NS(=O)(=O)c2ccccc2Cl)CCN1C(=O)Cc1ccccc1Cl (stereo not given)	1	10	-0.2
i	-10	CO[C@@H]1CN(C)C(=O)c2cc(NC(=O)c3cccc(F)c3)ccc2OC[C@H](C)NC[C@H]1C	-3	0	-4.8
i	7.1	C[C@@H]1CN([C@H](C)CO)C(=O)c2cc(C#CCN(C)C)cnc2O[C@H]1CN(C)Cc1ccc2c(c1)OCO2	-3	12	-1.7
i	-3.2	C[C@H]1CN([C@@H](C)CO)C(=O)c2cc(NC(=O)C3CC3)ccc2O[C@@H]1CN(C)S(=O)(=O)c1ccc(Cl)cc1	-5	-9	0.8
i	-3.5&-3.1	C[C@@H]1CN([C@H](C)CO)C(=O)c2cc(Br)cnc2O[C@@H]1CN(C)Cc1cncnc1	-2	10	3.5
i	-1.4	O=C(C[C@@H]1C[C@H]2c3cc(NC(=O)Nc4ccc(F)cc4)ccc3O[C@H]2[C@H](CO)O1)NCC(F)(F)F	1	1	0.5
i	1.9	Cc1ccc(S(=O)(=O)N(C)C[C@@H]2Oc3ccc(NC(=O)Nc4ccccc4)cc3CC(=O)N([C@H](C)CO)C[C@H]2C)cc1	1	4	-3.0
i	-3.3	CCC(=O)N1CC2(C1)[C@@H](c1ccccc1)[C@@H](CO)N2CC1CCOCC1	3	9	0.2
i	-2.0	CCOC(=O)C1CSCCS(=O)(=O)N1Cc1ccc(F)cc1F (stereo not given)	-6	0	2.2
i	-1.7	O=c1c2ccccc2nnn1CCc1ccccc1	-6	-3	-9.8
i	3.1	C/C=C/c1cccc(-c2nc(C(=O)NCCC)cc3c2[C@H](CCO)N([S@@](=O)C(C)(C)C)C3)c1	-8	-8	-0.1
i	-0.3	COc1ccc(S(=O)(=O)N[C@@H]2C=C[C@H](CC(=O)N3CCN(c4ccccc4)CC3)O[C@H]2CO)cc1	3	-6	-3.1
i	0.8	C[C@@H]1CN([C@H](C)CO)C(=O)c2cc(-c3cccc(C#N)c3)cnc2O[C@@H]1CN(C)Cc1ccc(F)cc1	-2	2	1.2
i	-2.4	C[C@@H]1CC2=C(C(=O)OC(C)(C)O2)[C@@H](C2CC2)O1	21	22	1.7
i	-1.4	CO[C@@H]1CN(C)C(=O)c2cc(NC(=O)c3cnccn3)ccc2OC[C@@H](C)NC[C@@H]1C	2	2	0.0
i	-3.5	COc1ccc(-n2nc3ccc(N)cc3n2)cc1	14	15	4.2
i	-2.8	Cc1noc(C)c1S(=O)(=O)N(C)C[C@@H]1Oc2ccc(NC(=O)Nc3cccc4ccccc34)cc2CC(=O)N([C@@H](C)CO)C[C@H]1C	-5	-2	0.3
i	3.4	COc1ccc(CNC(=O)CN2C(=O)NC(Cc3ccccc3)(c3ccccc3)C2=O)cc1OC (stereo not given)	-1	-10	1.9
i	-2.3	Cc1noc(C)c1NC(=O)Nc1ccc2c(c1)C(=O)N([C@H](C)CO)C[C@H](C)[C@@H](CN(C)S(=O)(=O)c1cccs1)OCCCC[C@@H](C)O2	2	5	-2.0
i	3.6	C[C@@H]1CN([C@H](C)CO)C(=O)c2cc(C#Cc3cccc(F)c3)cnc2O[C@@H]1CN(C)CC1CCOCC1	4	14	-1.8
i	2.3	CCCC(=O)Nc1ccc2c(c1)C(=O)N(C)C[C@H](OC)[C@@H](C)CN(C(=O)c1cccnc1)[C@@H](C)CO2	5	10	0.2
i	-0.7	CCCNC(=O)C1(C)CCCN(C(=O)Cc2ccc3ccccc3c2)C1 (stereo not given)	-3	-14	-1.6
i	-0.8	Cc1nc(N/N=C/c2cccnc2)cc(N2CCOCC2)n1	2	8	-2.1
i	0.0	CC(C)NC(=O)Nc1ccc2c(c1)CC(=O)N([C@@H](C)CO)C[C@H](C)[C@H](CN(C)Cc1ccc3c(c1)OCO3)O2	-1	-10	0.9
i	-2.4	COC(=O)c1cc2c(c3c4cc(F)ccc4n(S(=O)(=O)c4cccc(C)c4)c13)C(=O)N(Cc1ccco1)C2	-17*	-20*	7.9*
i	-0.8	COc1ccc2c3c([nH]c2c1)[C@@H](CO)N(C(=O)Nc1ccc(F)cc1)CC31CCN(Cc2cc(-c3ccccc3)on2)CC1	-5	1	-0.1
i	2.6	CC(C)NC(=O)N(C)C[C@H]1OCCCC[C@H](C)Oc2ccc(NC(=O)Cc3ccccc3)cc2C(=O)N([C@H](C)CO)C[C@@H]1C	-1	3	-1.3
i	-2.5	COC(=O)C[C@H]1C=C[C@H](NS(=O)(=O)c2ccc(OC)cc2)[C@@H](CO)O1	-1	-1	-0.9
i	-14	CCN(c1ccccc1)S(=O)(=O)c1ccc(OC)c(NC(=O)C2=NN(c3ccccc3)C(=O)CC2)c1	12	8	0.0
i	1.0	COC(=O)C[C@@H]1CC[C@H]2[C@H](COc3ccc(NC(=O)c4cccc(OC)c4)cc3C(=O)N2C)O1	-9	-13	0.2
i	2.8	CCN(CC(=O)Nc1cc(Cl)ccc1C)C(=O)C1CCN(c2ncnc3sc(C)c(C)c23)CC1	-3	-24	13
i	0.9	COCC(=O)N1CC2(C1)CN(Cc1ccc3c(c1)OCO3)[C@@H](CO)c1c2c2ccc(OC)cc2n1C	-1	16	-2.1
i	-6.4	COc1ccc(/C=C2/CCC(CN3CCOCC3)C2=O)cc1 (stereo not given)	-12	-4	8.1
i	0.9	CCOC(=O)[C@]12CCC=C1N(Cc1ccco1)C(=O)[C@H](CC(=O)NCc1ccccc1)C2	2	8	2.0
i	1.4	Cc1ccc(S(=O)(=O)N[C@H]2CC[C@@H](CC(=O)N3CCC(Cc4ccccc4)CC3)O[C@H]2CO)cc1	-7	-45	38
i	-1.2	O=C(C[C@@H]1C=C[C@H](NC(=O)Cc2cccnc2)[C@@H](CO)O1)Nc1ccc(-c2ccccc2)cc1	-3	-2	-0.1
i	-4.4	CCN1C(=O)[C@H]2[C@H]3CN=C(SCc4ccccc4)N3[C@@](CC)(C(=O)OC)[C@H]2C1=O	23	18	5.6
i	0.2	C[C@@H]1CN([C@H](C)CO)C(=O)c2cc(Br)cnc2O[C@H]1CN(C)S(=O)(=O)c1ccc(F)cc1	-2	-6	0.7
i	7.3	COc1ccccc1NC(=O)N1CCCCN2[C@H](CO)[C@@H](c3ccc(C#Cc4ccccc4)cc3)[C@H]2C1	-34	-22	27
i	1.2	Cc1ccc(S(=O)(=O)N(C)C[C@@H]2OCCCC[C@@H](C)Oc3ccc(NC(=O)CCCN(C)C)cc3C(=O)N([C@@H](C)CO)C[C@@H]2C)cc1	1	-3	-1.4

# Screens from PubChem BioAssay.

# Not all compounds are listed (hit frequency here may not be typical).
